FGF22 binding: shifts melting point of recombinant human FGF22 | Q9HCT0 | recombinant FGF22 thermal shift, SYPRO orange fluorescence; percent of sucrose octasulfate shift, DMSO zero | calls only at 9.99 µM | 340,000 compounds, 1.5% hits | AID 651658;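 active = melting point raised past a set limit in the mean and every replicate; three in four hits are not shown here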
Target sequence (Q9HCT0 whole entry, looked up): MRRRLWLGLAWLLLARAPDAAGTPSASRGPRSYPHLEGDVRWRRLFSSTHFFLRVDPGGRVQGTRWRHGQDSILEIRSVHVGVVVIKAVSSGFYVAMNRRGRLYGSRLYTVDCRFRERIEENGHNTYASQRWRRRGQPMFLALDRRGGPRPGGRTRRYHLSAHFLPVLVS
Ecoli growth: E. coli growth inhibition; Escherichia coli growth, OD600, 23 h; hits give low values; 330,000 compounds, 0.21% hits; OD600 absorbance (no concentration beside the values);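 active = OD600 absorbance below the run mean of sample wells minus 3.6 SD, in any replicate, cut at about 0.56 in these data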;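 note: stock transfer was 300 nL into about 60 µL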
B2AR ag: activates human beta-2 adrenergic receptor causing internalization; P07550; Am2.2-beta2AR cells, FAP receptor internalization, flow cytometry; reference of the scale not given here; response, % (concentration not given with the values); 340,000 compounds, 0.43% hits; AID 504454;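 active = response above a set limit, near 3 SD of response in nonfluorescent compounds, cut at about 42% in these data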;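 note: stock transfer was 100 nL into about 11 µL; a reference agonist was the positive control; negative values mostly stem from fluorescent compounds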
Target sequence (P07550 whole entry, looked up): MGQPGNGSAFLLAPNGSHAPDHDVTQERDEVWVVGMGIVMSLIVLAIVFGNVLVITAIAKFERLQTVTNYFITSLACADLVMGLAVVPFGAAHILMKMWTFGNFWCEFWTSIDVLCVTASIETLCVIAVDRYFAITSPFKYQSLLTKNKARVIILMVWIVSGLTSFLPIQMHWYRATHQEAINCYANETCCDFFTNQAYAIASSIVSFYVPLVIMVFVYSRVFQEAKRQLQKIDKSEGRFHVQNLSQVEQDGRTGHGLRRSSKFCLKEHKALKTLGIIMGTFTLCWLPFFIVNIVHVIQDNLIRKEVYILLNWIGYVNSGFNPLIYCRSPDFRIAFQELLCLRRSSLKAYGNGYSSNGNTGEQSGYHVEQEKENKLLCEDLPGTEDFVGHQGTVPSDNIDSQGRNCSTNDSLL
ALR H2O2 inh: inhibitors of human sulfhydryl oxidase ALR. P55789. inhibition, % (concentration not given with the values). 290,000 compounds, 3.8% hits. purified ALR, DTT oxidation, H2O2 HRP-luminol luminescence. AID 485317;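 active = mean and each replicate at 75% or more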;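 note: stock transfer was 7.5 nL into about 7.5 µL; 0% = neutral wells and 100% = wells with inactivated enzyme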
LANA-H2B inh: blocks KSHV LANA binding to histone H2A/H2B; inhibition, % (no concentration beside the values); cell-free LANA-H2A/H2B peptide, fluorescence polarization; 320,000 compounds, 0.6% hits; in the data active = inhibition mostly above about 10%, no sharp cut-off; inactive = mostly below about 6.7%;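 note: stock transfer was 7.5 nL into about 10 µL; 0% = median of vehicle wells and 100% = median of positive control wells; one replicate is shown; the record names a cut of 25% in any replicate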
UCH37 inh: inhibitors of human deubiquitinating enzyme UCH37; Q9Y5K5; inhibition, % (no concentration beside the values); purified proteasome/UCH37, Ub-AMC cleavage fluorescence; 330,000 compounds, 0.33% hits; AID 588478;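 active = mean of two replicates above 20%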;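 note: 0% = compound-free wells with enzyme and 100% = wells lacking proteasome; stock transfer was 100 nL into about 20 µL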
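Material: human UCH37 enzyme supplied as purified proteasome complex. Measure: % inhibition of Ub-AMC cleavage fluorescence. Medium: pH 7.4 Tris-HCl (50 mM) with ovalbumin, ATP-MgCl2, DTT. Times: 30 min preincubation with enzyme, 25 min cleavage at room temperature. Detection: AMC fluorescence intensity at 355/460 nm.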
HNF4A DNA FP: change in binding of human HNF4 alpha to DNA; activity change, % at 10 µM; 360,000 compounds, 0.3% hits; P41235; HNF4a-FITC DNA binding, fluorescence polarization, 1 h; in the data active = activity change above about 30%, passing the limit was not always enough;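 note: controls were the assay level and a saturating level of protein; the project sought stronger binding though the title names inhibitors; some compounds called inactive have numbers as strong as hits; positive values seem to mean higher polarization but the record does not say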
Target sequence (P41235 whole entry, looked up): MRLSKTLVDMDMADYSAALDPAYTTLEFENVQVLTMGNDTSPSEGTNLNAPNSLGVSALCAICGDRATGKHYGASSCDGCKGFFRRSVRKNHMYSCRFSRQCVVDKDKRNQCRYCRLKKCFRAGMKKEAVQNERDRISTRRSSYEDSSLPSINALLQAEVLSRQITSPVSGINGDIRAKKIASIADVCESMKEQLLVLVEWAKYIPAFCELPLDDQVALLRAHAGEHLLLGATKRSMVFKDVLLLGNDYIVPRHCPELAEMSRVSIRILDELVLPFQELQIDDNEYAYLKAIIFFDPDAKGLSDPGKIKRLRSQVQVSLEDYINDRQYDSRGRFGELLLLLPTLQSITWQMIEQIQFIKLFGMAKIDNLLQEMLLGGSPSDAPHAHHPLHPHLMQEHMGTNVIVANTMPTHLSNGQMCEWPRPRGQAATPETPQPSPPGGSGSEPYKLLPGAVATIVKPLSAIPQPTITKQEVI
* hit, by the source's call; i = inactive; . = not tested or not shown; + = active, no number.

SMILES	FGF22 binding	Ecoli growth	B2AR ag	ALR H2O2 inh	LANA-H2B inh	UCH37 inh	HNF4A DNA FP
CN(c1ccccc1C(=O)NCC1CCCO1)S(C)(=O)=O (stereo unspecified)	.	0.725	4.2	-16.7	1.1	3.6	-0.5
O=C(Nc1ccc(OC(F)(F)F)cc1)c1cccc(-n2cnnn2)c1	i	0.678	8.8	.	.	5.1	-0.3
O=C(O)c1ccc(O)cc1O	i	0.635	-5.1	-19.4	28.1*	1.9	5.1
Cc1cc(C)n(-c2cc(Cl)cc(Cl)c2)c(=O)c1C#N	.	0.732	-14.5	-2.3	3.0	2.2	1.8
CCn1c2ccccc2c2cc(NC(=O)CSc3nnc(-c4cccc(OC)c4)n3N)ccc21	.	0.723	7.7	3.1	-2.7	0.9	7.2
COc1cccc(OC)c1C(=O)N1CCN(S(=O)(=O)c2ccccc2)CC1	.	0.799	5.5	-0.9	3.4	2.5	0.7
CCOc1ccc(NC(=O)CC2C(=O)N(C)C(=S)N2Cc2ccco2)cc1 (stereo unspecified)	.	0.688	11.1	-5.1	3.9	6.4	-2.2
CC(=O)c1cn(CC(=O)NCc2ccco2)c2ccccc12	.	0.674	1.1	-25.3	-1.3	2.1	2.5
COC(=O)C1=C(C)NC2=C(C(=O)CC(C)(C)C2)C1c1cn(Cc2ccc(Br)cc2)nc1-c1ccccc1 (stereo unspecified)	.	0.723	0.2	0.6	-0.4	-130.1	17.4
COc1ccc(C(=O)NC(=S)N2CCN(C)CC2)cc1Br	.	.	-1.3	9.1	2.0	.	-1.9
CC1C(=O)NN=C1c1ccc([N+](=O)[O-])cc1 (stereo unspecified)	i	.	8.2	.	.	.	-0.3
CC(C)(C)c1ccc(Oc2ccc(N)cn2)cc1	.	0.659	-2.3	98.1*	3.1	-1.6	64.3*
Cc1cc(C)nc(N/N=C/c2ccco2)n1	.	.	0.7	3.5	3.1	.	-2.9
O=C(NNc1nc(N2CCOCC2)nc(N2CCOCC2)n1)Nc1ccc(Cl)cc1	.	0.662	.	-2.7	2.4	4.2	.
CCOC(=O)c1ccccc1NC(=O)c1cc2sccc2n1C	.	0.685	13.0	-0.8	11.0	-79.5	-3.6
CCc1ccc(OCCOC(=O)Nc2ccccc2)cc1	i	0.725	10.6	-5.9	0.5	6.5	-0.3
Cc1cc(C)n2nc(SCC(=O)N(C)Cc3ccccc3)nc2n1	.	0.699	-5.4	-1.7	-7.7	5.3	2.2
Cc1ccnc(Sc2ncccc2[N+](=O)[O-])n1	.	0.74	-3.0	-8.3	-2.6	5.4	-1.2
CCN(CC)S(=O)(=O)c1ccc2c(c1)nc(-c1ccccn1)n2C	i	0.671	-0.6	-8.1	7.0	0.4	-1.2
CCc1nc(SCC(=O)NCc2ccco2)c2c3c(sc2n1)CCCC3	.	0.747	-6.0	1.2	-3.4	2.4	5.2
Cc1cc(OC(C)C(=O)N/N=C/CC(C)c2ccccc2)ccc1Cl (stereo unspecified)	.	.	-1.7	-1.1	7.1	.	-0.1
C/C(=N\NC(=S)Nc1c(C)cccc1C)c1cc2ccccc2o1	i	.	10.7	-0.1	-1.5	.	0.1
CNC(=O)[C@@]1(Cc2ccccc2)C=C[C@@H](C)N1C(C)=O	i	.	-1.0	0.5	-1.2	4.5	0.0
O=C(NNc1c2ccccc2nc2ccccc12)c1ccc(Cl)cc1	i	0.691	24.6	-7.3	0.3	2.2	-2.8
O=S(=O)(NC1CCCCC1Sc1ncccn1)c1ccccc1 (stereo unspecified)	.	.	-2.5	4.5	12.7*	.	0.5
O=C(c1cnc(-c2ccccc2)s1)c1ccc(Cl)cc1Cl	.	0.719	-4.3	.	-3.4	4.3	1.1
CCOC(=O)C1=C(COC(=O)Cc2ccccc2)NC(=O)NC1C (stereo unspecified)	i	0.722	-3.8	-3.3	-3.7	0.1	-5.2
Cn1ncc(Br)c1NC(=O)Nc1ccc(Cl)cc1	.	0.653	-1.1	.	3.8	6.7	1.8
Cc1ccccc1N=C1c2cc([N+](=O)[O-])ccc2-c2ncccc21	i	0.718	-12.0	-5.4	-0.4	2.6	0.4
Cc1c(C)c(C)c(C(=O)c2ccc(NC(=O)c3ccccc3C(=O)O)cc2)c(C)c1C	i	0.654	9.2	96.4*	-2.2	5.2	2.8
Cc1cccc(-c2nn(-c3ccccc3)cc2C(=O)NCC(c2cccs2)N2CCOCC2)c1 (stereo unspecified)	i	0.655	-7.3	.	2.9	0.9	1.4
CC(C)N(Cc1nc(-c2ccccc2)no1)C(=O)CN(C)S(=O)(=O)c1ccc(Br)cc1	.	0.666	-8.3	-8.3	-0.9	-0.1	-2.3
COc1ccc(/C(=N\O)c2nccc3cc(OC)c(OC)cc23)cc1OC	i	.	-0.8	-14.5	-1.0	.	0.1
Clc1ccc(-c2nnc3n2CCCC3)cc1	.	0.685	-8.5	-3.5	-10.0	4.8	0.9
Cc1ccccc1NC(=O)Cc1nc(CSc2nnc(C3CCCCC3)n2N)cs1	.	0.731	-0.2	-12.2	-1.4	2.7	-1.1
CC(=O)Nc1ccc(NC=C(C#N)C#N)cc1	i	0.86	-0.2	-3.7	0.8	8.8	1.1
CCN(CC)CCCN(C(=O)c1ccccc1C)c1nc(-c2ccc(OC)cc2)cs1	i	0.69	0.9	-0.3	1.9	4.2	-2.7
COc1ccc(Cl)cc1S(=O)(=O)n1nnc2ccccc21	.	0.649	-0.1	-3.6	-3.6	1.1	-2.9
Cc1ccc(N2C(=O)C(Cl)=C(N3CCCCCC3)C2=O)cc1	i	0.674	-8.5	15.4	-0.5	1.1	4.0
COc1ccc(-c2nonc2NC(=O)c2ccco2)cc1OC	i	0.69	-4.1	-2.6	0.9	0.3	2.1
CC(=O)C1=C(C)NC2=C(C(=O)CC(C)(C)C2)C1C (stereo unspecified)	i	0.701	-4.9	-4.0	4.8	-3.4	-2.8
O=C(CN1CCCCC1)N1CCN(c2ccccc2)CC1	i	0.682	-3.0	37.0	3.3	4.1	-4.3
Cn1c(CCNC(=O)c2ccccc2)nc2ccccc21	.	0.656	-15.2	-3.0	-1.1	4.0	-2.5
COc1ccc(C(=O)NCc2cc(C)nc3ccccc23)cc1	i	0.671	-1.7	-10.1	-2.8	4.6	2.3
CCOc1ccccc1NC(=O)NNC(=O)c1ccc2ccccc2c1	i	0.689	0.7	-1.7	1.8	6.3	-3.9
O=C(CCNC(=O)C1CCN(S(=O)(=O)c2ccccc2)CC1)Nc1cccc(C(F)(F)F)c1	i	0.671	-4.5	-0.8	-0.5	4.8	-0.1
CC(C)N(Cc1nccn1C)C(=O)c1ccc2oc(Cc3ccccc3)nc2c1	i	0.698	-6.2	.	.	2.1	-5.2
COc1ccc(NC(=S)Nc2ccccc2OC)c(OC)c1	i	0.723	6.8	63.5	0.8	1.0	-3.1
COC(C[C@@H]1O[C@H]1C(=O)COCc1ccccc1)OC	i	.	2.2	.	1.4	4.6	-2.2
CC(NC(=O)CNC(=S)N(Cc1ccccc1)Cc1cccnc1)c1ccccc1 (stereo unspecified)	i	0.672	0.9	-1.5	-2.2	0.7	1.6
CCNC(=O)C1CCN(S(=O)(=O)c2ccc(F)cc2)CC1	.	0.68	-2.1	-2.3	7.0	-1.8	-0.4
Cc1c(C(=O)NCc2ccc3c(c2)OCO3)oc2ccccc12	.	0.707	-1.1	-10.1	1.4	1.6	-0.2
COc1cccc(C(=O)N2CCN(C(=O)c3cccs3)CC2)c1OC	.	0.718	-0.6	-24.6	3.1	-1.0	-3.6
Cc1cc(C)nc(N2N=C(CSc3ccc(Cl)cc3)CC2=O)n1	.	0.684	1.8	11.6	0.8	-0.3	0.6
Cc1ccc(-c2nnc(SCC(=O)Nc3ccc4c(c3)OCCO4)n2N)cc1	.	0.779	0.3	0.5	1.0	6.0	0.4
Cc1ccc(S(=O)(=O)N2CCN(C(=O)CCc3nc4ccccc4c(=O)[nH]3)CC2)c(C)c1	i	0.676	-4.7	-0.3	-4.5	3.0	4.2
O=C(O)c1ccccc1C(c1ccc(O)cc1)c1ccc(O)cc1	i	0.705	-5.8	41.3	3.4	1.6	-3.0
O=C(OCc1nc2ccsc2c(=O)[nH]1)c1ccc(Cl)nc1	i	0.657	0.6	-0.9	2.7	1.6	2.7
CC1(O)CC(c2ccc(Cl)cc2)=NN1C(=O)c1ccc([N+](=O)[O-])cc1 (stereo unspecified)	i	0.698	5.5	62.9	-1.2	2.2	2.1
CC(=O)N1CCN(CCN=CC2=C(O)CC(c3ccco3)CC2=O)CC1 (stereo unspecified)	.	0.678	-1.7	.	1.8	1.1	3.5

(cont.)
SMILES	FGF22 binding	Ecoli growth	B2AR ag	ALR H2O2 inh	LANA-H2B inh	UCH37 inh	HNF4A DNA FP
O=C(O)c1cccc(NS(=O)(=O)c2cccc(C(=O)Nc3ccccc3[N+](=O)[O-])c2)c1	i	0.681	11.7	-4.1	3.2	5.4	3.5
CCOc1ccc(S(=O)(=O)N(C)c2ccc(OCC(=O)Nc3nc(-c4cc(OC)ccc4OC)cs3)cc2)cc1	i	0.731	-4.5	-27.5	0.0	7.8	3.4
CNS(=O)(=O)c1cccc2cccnc12	.	0.734	0.9	4.3	0.5	3.3	0.3
CC(=O)NC(=S)Nc1ccc(NC(=O)c2cccnc2)cc1	i	0.689	3.3	-3.6	-1.0	2.0	-0.8
COc1ccc(OC)c(/C=N/N(C)c2ccccc2)c1	.	.	0.1	98.9*	0.4	.	-0.2
COc1ccccc1N(Cc1ccccc1)S(=O)(=O)c1cccc(C(=O)Nc2ccc(C)cn2)c1	i	0.746	10.8	-0.8	-1.9	4.7	-2.7
Cn1ccc(C(=O)Nc2cccnc2Cl)n1	i	0.678	-3.8	.	.	1.0	4.7
Cc1c(C(=O)N(Cc2nnc(-c3ccccc3Cl)o2)C2CC2)oc2ccccc12	i	0.646	-12.5	0.9	2.3	3.4	-1.3
COc1cccc(/C=N/NC(=S)Nc2cccc(S(=O)(=O)N(C)C)c2)c1	i	.	-1.9	4.6	-0.3	.	-4.5
CCOC(=O)CC1C(=O)NCCN1C(=O)Nc1ccc(Cl)cc1 (stereo unspecified)	.	0.751	-0.7	-8.9	-1.8	4.8	1.0
CCOc1ccc(OCCOc2ncnc3ccccc23)cc1	.	0.724	-0.9	-0.6	0.5	0.6	0.8
Cc1ccc(S(=O)(=O)Nc2cccc3c2O[C@H](CN(C)Cc2ccccc2)[C@@H](C)CN([C@H](C)CO)C3=O)cc1	i	0.791	11.3	-8.0	0.3	4.2	-0.8
COc1ccc2c3c(cccc13)C(=O)CC2	i	0.65	9.9	10.7	+	-14.1	-90.8
CCOc1nc2c(c(=O)n(C)c(=O)n2C)n1Cc1ccccc1Cl	.	0.672	-1.0	1.2	-2.4	1.6	-0.7
CCCC(=O)Nc1ccc(N2CCN(C(=O)CCC)CC2)cc1	.	0.697	-3.1	-3.7	0.0	2.7	-2.8
CCOC(=O)c1cn2nc(Oc3ccc(C)cc3)ccc2n1	i	0.68	5.2	-0.2	4.8	1.6	2.4
O=C(CSc1nnc(NC(=O)c2ccco2)s1)Nc1ccc(F)cc1F	i	0.727	-1.4	-4.1	-2.0	-7.1	1.4
COc1ccc(NC(C)C(=O)N/N=C/c2c(O)ccc3ccccc23)cc1 (stereo unspecified)	i	.	-4.7	-21.5	2.6	.	2.8
Cc1ccc2c(c1)N(C(=O)CCC(=O)NC1CCCCCC1)CC(C)O2 (stereo unspecified)	i	0.775	11.7	-1.4	3.0	4.4	3.5
CC(=O)c1cccc(NC(=O)COc2cc3oc(=O)c(CC(C)O)c(C)c3cc2Cl)c1 (stereo unspecified)	i	.	7.0	-1.2	-2.7	.	2.3

Only part of the results is shown; rates above refer to the full screens.
